Rce1 inhib: blocks yeast Ras-converting enzyme; yeast membranes, quenched prenylated peptide cleavage fluorescence; AID 2563; calls only; hit rate 0.27% among 290,000;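 active = fall in fluorescence gain of 50% or more versus controls, with final raw signal at or below 3038400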;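 note: plate controls were neutral control wells for no effect and wells lacking membranes for full effect; tested at 10 µM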
CSC inhib: cancer stem cell inhibition. hit rate 1.1% among 300,000. cancer stem cell-like cells viability, luminescence. inhibition, % at 7.5 µM. AID 2717;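 active = mean at 75% or more and at least half the replicates too; tested in HMLE shEcad cells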;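 note: 0% = median of negative and 100% = median of positive control wells; the first replicate is given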
PABP polyA inh: PABP-poly(A) binding inhibition | P11940 | PABP-poly(A) RNA binding, fluorescence polarization | inhibition, % at 35 µM | hit rate 1% among 290,000 | AID 2014;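 active = 50% or more with normal probe brightness, or confirmed in later tests; about a fifth of its hits are not listed in these tables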;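 note: calls also rest on retests at 20 µM and on dose response follow-up; controls were probe without protein and protein plus probe with vehicle; some compounds called inactive have numbers as strong as hits; many hits fall short of the cut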
Target sequence (P11940 whole entry, looked up): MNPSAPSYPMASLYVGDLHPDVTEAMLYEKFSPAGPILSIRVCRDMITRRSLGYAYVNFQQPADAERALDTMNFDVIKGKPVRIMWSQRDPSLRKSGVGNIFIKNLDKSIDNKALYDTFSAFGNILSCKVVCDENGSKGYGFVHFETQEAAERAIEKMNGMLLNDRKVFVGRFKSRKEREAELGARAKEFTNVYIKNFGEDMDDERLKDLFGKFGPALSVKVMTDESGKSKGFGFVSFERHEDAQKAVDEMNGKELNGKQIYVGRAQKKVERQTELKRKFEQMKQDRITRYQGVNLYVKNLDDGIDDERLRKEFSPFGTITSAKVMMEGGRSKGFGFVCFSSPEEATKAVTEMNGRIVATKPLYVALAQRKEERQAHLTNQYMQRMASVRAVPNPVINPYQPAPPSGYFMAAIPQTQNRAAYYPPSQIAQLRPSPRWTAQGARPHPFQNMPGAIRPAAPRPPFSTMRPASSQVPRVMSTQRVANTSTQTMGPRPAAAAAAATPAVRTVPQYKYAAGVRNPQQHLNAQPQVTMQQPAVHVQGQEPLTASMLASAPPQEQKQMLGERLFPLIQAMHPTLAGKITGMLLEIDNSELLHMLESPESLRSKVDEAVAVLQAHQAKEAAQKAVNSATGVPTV
eIF4H inh: inhibitors of RNA binding by human eIF4H; eIF4H fluorescence polarization binding assay; AID 2012; inhibition, % at 35 µM; hit rate 0.94% among 290,000; Q15056;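 active = 50% or more with normal probe brightness, or confirmed in later tests; about a fifth of its hits are not listed in these tables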;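 note: calls also rest on retests at 20 µM and on dose response follow-up; 0% = protein and probe with vehicle and 100% = probe without protein; strong numbers were not always called active; many hits fall short of the cut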
MT1-MMP act inh: MT1-MMP (human) activation inhibition | P50281 | HT1080 RFP-PRO-GFP cells, GFP/RFP ratio fluorescence, overnight; percent of plate control window, DMSO zero | GFP/RFP ratio change, % at 20 µM | hit rate 0.061% among 360,000 | AID 651647;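 active = GFP/RFP ratio change of at least 30% with cell ATP level not reduced by more than half and red fluorescence within 50% of control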; note: strong numbers were not always called active
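Assay system: HT1080 cells carrying an RFP-PRO-GFP reporter | Dosing: Single dose of 20 µM compound, 1% DMSO final | Incubation: Cells overnight before dosing, compound overnight, 37 °C, 5% CO2 | Evaluation: GFP/RFP fluorescence ratio | Control set: DMSO and RFP-L50D-GFP cell wells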
HIV Env fusion: blocks HIV Env-driven cell-cell fusion; HeLa-JRFL Env/CEM21 cell fusion, luciferase; inhibition, % at 12.3 µM; hit rate 1.1% among 360,000; AID 651610;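 active = mean replicate inhibition score of at least 50 and every replicate individually at or above 50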;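 note: 0% = plate neutral controls and 100% = maraviroc near 300 nM; one replicate is shown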
UUG fidelity: modulators of start codon recognition fidelity in yeast; S. cerevisiae UUG-firefly luciferase reporter, luminescence/redox ratio; activity score, % at 18.7 µM; hit rate 0.13% among 350,000; AID 602363;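 active = replicate mean at a twofold rise or more, about +100% in these data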;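 note: firefly luciferase made from a UUG start codon reports start codon fidelity; reporter light over untreated wells divided by growth signal over untreated wells; some hits fall short of that in this replicate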
MT1-MMP act inh RFP: further read-out of MT1-MMP act inh, marked with its call; RFP signal change, %; measured here: RFP expression control read;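 0 = vehicle wells; hits needed this value within 50% of zero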
* marks the source's active call; other numbers are inactive results; i = inactive; . = not tested or not shown. The order is random; any-hit rate near 3%.

molecule	Rce1 inhib	CSC inhib	PABP polyA inh	eIF4H inh	MT1-MMP act inh	MT1-MMP act inh RFP	HIV Env fusion	UUG fidelity
COc1ccc(S(=O)(=O)N2CCC(O)(c3ccc(Cl)cc3)CC2)cc1OC	i	-10	-1	-11	5	-8	11	.
CCOc1ccccc1NC(=O)NCc1ccccn1	i	2	4	-5	-2	3	12	-13
CC(=O)Nc1cc(-c2ccc(C(=O)N3CCOCC3)cc2)cn2c(-c3ccc(S(C)(=O)=O)cc3)cnc12	.	.	.	.	-3	6	-2	-19
O=C(Nc1nnc([C@@H]2C[C@H](O)[C@@H](CO)O2)s1)c1cccc(Cl)c1	.	.	.	.	2	6	-8	-11
Cc1ccc2nc(-c3ccc(NC(=O)CSCC(=O)O)cc3)sc2c1	i	27	18	4	3	-1	-54	-37
COc1cc(/C=N/NC(=O)c2cc(-c3cccs3)nc3ccccc23)ccc1O	i	22	1	-5	7	-9	7	-18
Cn1c(SCc2ccccc2)nnc1-c1cccs1	i	-9	-4	-1	-4	4	.	1
CCN(CC)C(=O)c1cc2cc([N+](=O)[O-])ccc2s1	i	-12	2	-8	-5	-2	.	-20
CCN(C#N)c1nc(NC(C)C)nc(NC(C)C)n1	i	.	0	-9	1	-5	.	-22
COc1ccccc1N1CCN(CCC(=O)Nc2ccc3c(c2)OCO3)CC1	.	-7	0	4	2	-1	-4	-6

The listing continues:
molecule	Rce1 inhib	CSC inhib	PABP polyA inh	eIF4H inh	MT1-MMP act inh	MT1-MMP act inh RFP	HIV Env fusion	UUG fidelity
Cc1ccnc(NC(=O)c2cccc(OC(F)F)c2)n1	i	.	1	-5	-1	1	-11	-15
CCOC(=O)N1CCN(C(=O)CSc2nc(C)nc3c2c(=O)n(C)c(=O)n3C)CC1	i	-9	1	4	5	0	3	.
OCCNc1ncnc2c1ncn2[C@H]1CN(C2CCCC2)C[C@@H](CO)O1	.	.	.	.	0	1	-2	-10
O=C(c1ccc(COc2ccccc2Br)o1)N1N=C(C(F)F)CC1(O)C(F)F (stereo unspecified)	i	16	4	-9	-8	-3	-13	-31
Cc1ccc(Cn2c(SCC(=O)N3CC(=O)Nc4ccccc43)nc3ccccc3c2=O)cc1	i	37	-7	2	-24	-17	10	.
CCCCN(C(=O)CSc1nc(CCC)cc(=O)[nH]1)c1c(N)n(Cc2ccccc2)c(=O)[nH]c1=O	.	8	.	.	-2	1	38	-9
CCOC1(OCC)N=C(N)C2(C#N)C(c3cccc(C)c3)C12C#N (stereo unspecified)	i	-18	6	2	4	9	.	-19
COc1ccc(CCN=C(C)C2=C(O)C(c3ccccc3)OC2=O)cc1OC (stereo unspecified)	i	-9	7	-1	0	-2	19	.
Cc1cc(C)cc(C(=O)N2CCC(CCC(=O)NC3CC3)CC2)c1	i	-1	2	-5	3	0	.	-3
O=C(NC1CCCCC1)C(c1cccs1)N(CCCN1CCOCC1)C(=O)c1ccc(-c2ccccc2)[nH]1 (stereo unspecified)	i	-9	13	2	-4	-5	-16	.

Three structures from above, sorted by molar mass, lowest first.
molecule	Rce1 inhib	CSC inhib	PABP polyA inh	eIF4H inh	MT1-MMP act inh	MT1-MMP act inh RFP	HIV Env fusion	UUG fidelity
Cc1ccnc(NC(=O)c2cccc(OC(F)F)c2)n1	i	.	1	-5	-1	1	-11	-15
Cc1cc(C)cc(C(=O)N2CCC(CCC(=O)NC3CC3)CC2)c1	i	-1	2	-5	3	0	.	-3
O=C(c1ccc(COc2ccccc2Br)o1)N1N=C(C(F)F)CC1(O)C(F)F (stereo unspecified)	i	16	4	-9	-8	-3	-13	-31

(continued)
molecule	Rce1 inhib	CSC inhib	PABP polyA inh	eIF4H inh	MT1-MMP act inh	MT1-MMP act inh RFP	HIV Env fusion	UUG fidelity
CCN(c1ccccc1)S(=O)(=O)c1ccc(C(=O)N(C)Cc2cccs2)cc1	.	-12	.	.	0	-4	0	-1
CN1CCOCCOCCOCCN(C)C1=S	i	.	2	2	-3	0	-7	.
O=C(CCN1C(=O)S/C(=C\c2ccccc2)C1=O)NC1CCS(=O)(=O)C1 (stereo unspecified)	i	2	-5	-4	-2	1	-28	-13
O=C(CCOc1ccccc1)Nc1ccnn1C1CCN(Cc2ccc(F)cc2)CC1	i	17	-5	-9	2	-2	-1	1
COCCn1nnnc1C(c1cccc(OC)c1OC)N1CCN(C(=O)c2ccco2)CC1 (stereo unspecified)	i	.	4	-3	-5	1	6	-4
CC(C)Cn1c(=O)c(C(=O)Nc2cnccn2)c(O)c2ccccc21	i	9	12	-3	2	2	.	-9
COc1ccc(CC(=O)NCC(=O)Nc2ccccc2Br)cc1	i	2	4	-11	1	2	5	-19
CC(=O)c1ccc(NC(=O)C2CCCN2S(=O)(=O)c2cccc3cccnc23)cc1 (stereo unspecified)	i	-12	2	-6	.	.	-29	4
NS(=O)(=O)c1cc(C(=O)OCC(=O)NC2CC2)ccc1Cl	i	-12	-3	-8	5	5	.	-23
CS/C(=C(/C#N)S(=O)(=O)c1ccc(Cl)cc1)N1CCOCC1	i	-2	8	-2	3	3	-1	-6

Continuation:
Values run as follows: Rce1 inhib	CSC inhib	PABP polyA inh	eIF4H inh	MT1-MMP act inh	MT1-MMP act inh RFP	HIV Env fusion	UUG fidelity
- O=C(Nc1cccc2ncccc12)c1cccc(F)c1
    i	-9	-6	-6	2	7	.	-11
- CCOc1ccc(-c2nc3scc(-c4cccs4)c3c(=O)[nH]2)cc1
    i	.	-13	10	-2	-1	-23	.
- Cc1cc(C(=O)c2cnc(/N=C/N(C)C)s2)c(F)cc1Cl
    i	5	11	1	-2	-2	10	.
- Cc1[nH]c2ccccc2c1C(=O)CN1C(=O)NC2(CC(C)CC(C)(C)C2)C1=O (stereo unspecified)
    i	-6	0	1	-4	-5	.	-1
- Cc1cc(C(=O)CSc2nnnn2C)c(C)n1C1CC1
    i	-5	0	29	1	5	-21	.
- CC(C)Sc1nc(N2CCOCC2)c2c3c(sc2n1)COC(C)(C)C3
    i	8	5	2	-5	-8	30	-16
- COc1ccc(OC)c(S(=O)(=O)Nc2ccc(O)c3ccccc23)c1
    .	20	-6	10	4	6	.	-24
- Cc1ccnn1-c1ccc(C(=O)N2CCCN(S(=O)(=O)c3ccc(F)cc3)CC2)cc1
    .	-4	.	.	-1	-5	.	-2
- NS(=O)(=O)c1ccc(NC(=O)Cn2nc(C(=O)O)c3ccccc3c2=O)cc1
    i	-14	9	12	2	4	-1	3
- CN(C)c1ccc(C(=O)NCC(c2cccs2)N2CCOCC2)cc1[N+](=O)[O-] (stereo unspecified)
    i	-3	.	.	0	7	29	-11
- COC(=O)c1cc(O)cc(OC)c1C(=O)c1c(O)cc(C)cc1O
    i	18	36	13	5	2	.	-9
- O=S(=O)(NCc1cccnc1)c1cccc2nsnc12
    i	-11	9	10	-1	-1	-54	-17
- O=C(N/N=C\c1cc([N+](=O)[O-])ccc1N1CCCC1)c1ccccn1
    i	2	-12	-10	6	5	18	.
- Cc1nn(C)c(Cl)c1C(=O)NCC(=O)NCc1ccccc1
    .	10	6	-1	1	0	17	-17
- CCC(Sc1nc(=O)cc(N)n1CCc1ccccc1)C(=O)Nc1ccccc1C#N (stereo unspecified)
    i	-11	7	0	0	-2	.	-1

Next section
Values run as follows: Rce1 inhib	CSC inhib	PABP polyA inh	eIF4H inh	MT1-MMP act inh	MT1-MMP act inh RFP	HIV Env fusion	UUG fidelity
- Cc1cccnc1NC(=O)c1cccc(S(=O)(=O)N2CCN(c3ccccc3)CC2)c1
    i	-2	.	.	6	-10	-15	.
- CC1CCN(S(=O)(=O)c2cccc(C(=O)Nc3ccccn3)c2)CC1
    i	-2	-10	2	-1	-1	5	1
- CC1(C)CC(=O)C=C(NCc2ccccc2)C1
    i	-16	-2	-9	3	1	.	-10
- CC1(C(=O)NCc2ccccc2)Cc2c(-c3ccccc3)ccnc2O1 (stereo unspecified)
    .	.	.	.	-2	-13	-92	-4
- CC1C(=O)O[C@@H]2C[C@@H](C)[C@@H]3CCC(=O)[C@@]3(C)[C@@H](O)[C@H]12 (stereo partly specified)
    i	-2	2	-8	4	6	16	12
- O=C(CCN1C(=O)S/C(=C/c2ccccc2)C1=O)Nc1ccc(C(=O)O)c(O)c1
    i	-23	11	0	0	5	7	3
- O=C(CSc1nc2ccccc2o1)Nc1ccccc1
    i	-2	9	12	-2	2	-25	-5
- O=S(=O)(N(Cc1ccccc1)[C@H](CO)Cc1ccccc1)N(Cc1ccccc1)[C@H](CO)Cc1ccccc1
    .	.	.	.	-5	-14	-13	-10
- O=[N+]([O-])c1cccc(CN(CCO)Cc2ccccc2)c1
    i	.	4	-4	7	0	8	-15
- Cc1c(C)c2ccc(OS(C)(=O)=O)cc2oc1=O
    i	6	-3	2	3	4	-14	.
- CC(NC(=O)Cc1ccccc1)c1cc2c(cc1Br)OCCCO2 (stereo unspecified)
    i	-7	-5	-3	3	0	-22	.
- CN(CC(=O)Nc1cccc(F)c1)CC(=O)Nc1cccc(S(=O)(=O)N(C)c2ccccc2)c1
    .	.	.	.	5	-11	30	3
- NC(=O)c1c(NC(=O)CN2CCN(S(=O)(=O)c3ccccc3)CC2)sc2c1CCC2
    i	6	.	.	-9	-15	-2	-22
- CC(=O)N(c1nc(CCl)cs1)c1ccc(C)cc1C
    i	-15	-4	-4	-2	0	3	.
- Cc1c(C(=O)N2CCC(C(N)=O)CC2)sc(N)c1C#N
    .	-32	-6	-6	4	6	.	-7

More compounds.
Values run as follows: Rce1 inhib	CSC inhib	PABP polyA inh	eIF4H inh	MT1-MMP act inh	MT1-MMP act inh RFP	HIV Env fusion	UUG fidelity
- O=C(O)Cc1csc(NC(=O)CSc2nnnn2-c2ccc(O)cc2)n1
    i	10	15	-1	2	4	16	.
- CC1N(O)C(C)(C)C(c2ccccc2)=[N+]1[O-] (stereo unspecified)
    i	-14	-14	10	-3	-2	-8	-12
- Cc1nc2ccc(NC(=O)COc3ccccc3F)cc2s1
    i	-6	2	-2	5	1	-38	.
- O=C(CSc1ncccc1C(=O)O)c1ccccc1F
    i	5	-16	-10	1	1	21	.
- c1ccc(NN(Cc2cnccn2)c2ccccc2)cc1
    .	.	.	.	-2	-2	0	-19
- COc1cc2cc(CCCOC(=O)c3ccc(C#N)cc3)oc(=O)c2cc1OC
    .	-9	.	.	2	3	-15	11
- O=C(CSc1nnc(N2CCOCC2)n1-c1cccc(F)c1)N1CCN(c2ccccn2)CC1
    .	.	.	.	-3	0	-9	-15

Screens (PubChem)
